HNF4A DNA FP: change in binding of human HNF4 alpha to DNA. P41235. activity change, % at 10 µM. hit rate 0.3% among 360,000. HNF4a-FITC DNA binding, fluorescence polarization, 1 h; in the data active = activity change above about 30%, passing the limit was not always enough;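 also: controls were the assay level and a saturating level of protein; the project sought stronger binding though the title names inhibitors; some compounds called inactive have numbers as strong as hits; positive values seem to mean higher polarization but the record does not say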
Target sequence (P41235 whole entry, looked up): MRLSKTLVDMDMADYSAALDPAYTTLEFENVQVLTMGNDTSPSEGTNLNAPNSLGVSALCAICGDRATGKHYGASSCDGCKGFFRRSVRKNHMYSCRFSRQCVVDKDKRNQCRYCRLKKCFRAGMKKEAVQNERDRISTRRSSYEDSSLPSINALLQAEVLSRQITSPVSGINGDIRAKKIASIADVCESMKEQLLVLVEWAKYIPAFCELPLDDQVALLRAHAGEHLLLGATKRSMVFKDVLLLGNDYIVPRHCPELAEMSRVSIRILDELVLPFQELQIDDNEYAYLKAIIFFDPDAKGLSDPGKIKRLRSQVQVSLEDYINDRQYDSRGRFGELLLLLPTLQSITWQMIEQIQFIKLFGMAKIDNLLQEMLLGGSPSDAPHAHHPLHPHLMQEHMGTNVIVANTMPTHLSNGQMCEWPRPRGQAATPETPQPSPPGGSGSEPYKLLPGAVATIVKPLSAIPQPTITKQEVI
rRNA inh HTS: inhibits bacterial ribosomal RNA function over humanized ribosomes; hit rate 1.6% among 350,000; AID 720706; GFP signal change (wild-type ribosome), % (concentration not given with the values); E. coli WT GFP vs humanized-ribosome RFP mutants, fluorescence, 24 h; active compounds read low; DMSO median 0, no signal -100;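 active = significant combined selectivity score with lowered wild-type GFP, culture density cut under 30%, mutant RFP and density less affected; inactive = any of these conditions unmet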; also: one replicate is shown; some compounds called inactive have numbers as strong as hits
FGF22 binding: binders of recombinant human FGF22 by thermal shift; hit rate 1.5% among 340,000; calls only at 9.99 µM; AID 651658; SYPRO orange fluorescence; percent of sucrose octasulfate shift, DMSO zero;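 active = melting point raised past a set limit in the mean and every replicate; inconclusive = no clear call; three in four hits are not shown here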
Target sequence (Q9HCT0 whole entry, looked up): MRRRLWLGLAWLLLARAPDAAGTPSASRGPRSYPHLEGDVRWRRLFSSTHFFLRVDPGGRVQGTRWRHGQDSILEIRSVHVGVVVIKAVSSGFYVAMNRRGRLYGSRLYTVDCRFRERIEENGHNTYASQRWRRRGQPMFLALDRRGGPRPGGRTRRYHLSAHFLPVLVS
E coli growth: blocks Escherichia coli growth; OD600, 23 h; active compounds read low; OD600 absorbance (test concentration not listed); hit rate 0.21% among 330,000;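 active = OD600 absorbance below the run mean of sample wells minus 3.6 SD, in any replicate, cut at about 0.56 in these data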;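 also: stock transfer was 300 nL into about 60 µL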
MLL AF4-AF9 inh: blocks AF4 peptide binding to human AF9; AID 651704; inhibition, % at 10 µM; AlphaScreen, biotin-AF4 peptide binding to FLAG-AF9; P42568; hit rate 0.47% among 350,000;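 active = every replicate reaching a set inhibition limit, whatever the replicate mean, cut at about 25% in these data; inconclusive = mean inhibition reaches that limit but some replicates miss it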;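 also: 0% = plate neutral control median and 100% = total signal loss; the record names both 10 and 1 µM as test concentration; the first replicate is given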
Vif A3G: HIV-1 Vif–A3G interaction blockers – biochemical, TR-FRET, GST-Vif 1-94, biotin-A3G peptide, dose response retest, primary screen (AID 1117319). TR-FRET GST-Vif / biotin-A3G peptide binding; higher % means a stronger effect; test concentration not given here; strong numbers were not always called active. inhibition, %, or IC50 in µM where a hit was titrated. hit rate 0.57% among 260,000;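 active = above the screen mean plus three standard deviations and confirmed in dose response; inconclusive = results disagree or hit not tested in dose response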;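 also: Vif residues 1-94 fused to GST binding biotinylated APOBEC3G peptide 110-148; 0% = full assay without inhibitor and 100% = GST in place of GST-Vif; retest series ran down from 100 µM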
ALR inh: human ALR oxidase inhibition via reduced H2O2 | P55789 | purified ALR, DTT oxidation, H2O2 HRP-luminol luminescence | inhibition, % (no concentration beside the values) | hit rate 3.8% among 290,000 | AID 485317;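 active = mean and each replicate at 75% or more; inconclusive = only one of the two met; inactive = neither met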;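 also: stock transfer was 7.5 nL into about 7.5 µL; 0% = neutral wells and 100% = wells with inactivated enzyme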
Target sequence (P55789 whole entry, looked up): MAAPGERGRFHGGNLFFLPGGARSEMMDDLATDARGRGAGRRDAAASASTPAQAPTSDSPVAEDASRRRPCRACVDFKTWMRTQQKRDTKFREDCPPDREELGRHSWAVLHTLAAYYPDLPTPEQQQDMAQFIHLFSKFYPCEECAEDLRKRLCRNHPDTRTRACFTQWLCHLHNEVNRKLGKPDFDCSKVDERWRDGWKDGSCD
rRNA inh HTS OD600: also measured in rRNA inh HTS; calls as there; OD600 change, %; measured here: OD600 growth;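 optical density of the mix in the first replicate; 0 = DMSO median and -100 = no signal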
rRNA inh HTS RFP: also measured in rRNA inh HTS; calls as there; RFP signal change, %; measured here: RFP humanized mutant strains;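 first replicate; 0 = DMSO median and -100 = no signal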
* marks the source's active call; other numbers are inactive results; i = inactive; ? = inconclusive; · = not tested or not shown.

SMILES	HNF4A DNA FP	rRNA inh HTS	rRNA inh HTS OD600	rRNA inh HTS RFP	FGF22 binding	E coli growth	MLL AF4-AF9 inh	Vif A3G	ALR inh
CCOc1ccc(CCNC(=O)Nc2cccc(OC)c2)cc1OCC	-0.2	2	2	0.2	i	0.67	0.9	1%	8
CO[C@@H]1CN(C)C(=O)c2ccc(NC(C)=O)cc2OC[C@@H](C)N(C(=O)C2CCOCC2)C[C@H]1C	·	-1	1	-0.9	i	·	-1.6	·	·
CCCc1ccc2oc(C(=O)NCc3nnc(C)o3)c(C)c2c1	0.3	-31	-30	-6.1	i	0.69	-0.9	8%	-3
CSc1ccccc1NC(=O)CN(c1cc(C)cc(C)c1)S(C)(=O)=O	-0.3	·	·	·	·	0.69	·	5%	-8
O=C(Nc1ccc(Cl)cc1)N1CCCN(Cc2ccc(F)cc2)C1	-0.5	·	·	·	·	0.61	·	12%	20
C/C(Cl)=C\Cn1c(O)c(N=O)c2ccccc21	-3.2	-4	-8	7.5	i	0.73	2.0	·	4
CC(=O)OC1CCC2C3CCC4=CC(=O)CCC4(C)C3CCC2(C)[C@]1(C)O (some centres undefined)	-0.2	1	-6	-0.3	i	0.68	-0.1	·	-6
CC(=O)N1CCN(c2ccc(NS(=O)(=O)c3ccc(C)cc3)cc2)CC1	1.6	1	-1	-0.4	i	0.69	2.2	·	39
COc1ccccc1Cc1c(-c2ccc(Cl)cc2)nc2ccc(Br)cn12	34	-38	-40	-3.0	i	·	3.3	·	·
COc1ccc(NS(=O)(=O)c2cccc(C(=O)NCC(c3ccccc3)N(C)C)c2)cc1 (centres undefined)	3.2	5	9	2.0	i	0.69	?	1%	5
O=C(Nc1nc2ccccc2s1)C1CC(=O)N(c2ccc(Br)cc2)C1 (centres undefined)	-1.3	·	·	·	·	0.66	·	5%	-3
CC1(C)OC(=O)N(c2ccccn2)C1(C)O (centres undefined)	-0.8	·	·	·	·	0.69	·	0%	-2
COC(=O)C[C@H]1CC[C@@H]2[C@@H](COc3ccc(NC(=O)Cc4cccs4)cc3C(=O)N2C)O1	·	-3	-8	2.1	i	·	2.0	·	·
CCN(CC)C1=N/C(=C\c2ccc(OC)cc2)C(=O)N1c1ccccc1	-1.9	-2	3	-6.2	i	0.62	-0.2	2%	·
COc1ccccc1Cn1c(C)nnc1-c1cnn(C)c1N	-1.9	2	10	1.0	i	0.69	1.1	·	·
COc1ccc(NC(=S)N2CCN(C(=O)c3ccco3)CC2)c(OC)c1	-0.6	·	·	·	·	0.68	·	-1%	19
C[C@H]1CN([C@@H](C)CO)C(=O)c2cc(NC(=O)Nc3ccccc3)ccc2O[C@@H]1CN(C)C(=O)Nc1cccc2ccccc12	·	4	-2	0.3	i	·	0.1	·	·
Cn1ccnc1Sc1cc(Cl)ccc1[N+](=O)[O-]	1.8	14	6	-1.0	i	0.66	1.5	·	-2
Cc1ccc(S(=O)(=O)NNC(=S)NC(C)(C)C)cc1	1.8	-2	7	0.3	i	0.71	1.6	-7%	59
CC(C)NC(=O)N(C)C[C@H]1OCCCC[C@H](C)Oc2ccc(NS(=O)(=O)c3cccs3)cc2C(=O)N([C@H](C)CO)C[C@@H]1C	·	-1	4	1.2	i	·	-2.5	·	·
COCCn1c(CN2CCc3ccccc3C2)nc2c1c(=O)n(C)c(=O)n2C	2.9	8	8	-0.8	i	0.69	-1.4	-9%	-8
O=Cc1ccc(N2Cc3ccccc3C2)cc1	-2.6	-4	1	-3.1	i	0.69	6.1	·	-4
CCN(CC)c1nc(N)c([N+](=O)[O-])c(NCCO)n1	-0.7	11	5	9.9	i	0.68	-1.3	·	-2
O=C(C1Cc2ccccc2CN1S(=O)(=O)c1cccs1)N1CCCCC1 (centres undefined)	2.1	·	·	·	·	0.65	·	14%	-6
CCCCN(C(=O)CSCC(=O)Nc1ccc(C)cc1)c1c(N)n(CCCC)c(=O)[nH]c1=O	-3.3	8	10	-1.2	i	0.67	0.5	4%	9
More results follow.
SMILES	HNF4A DNA FP	rRNA inh HTS	rRNA inh HTS OD600	rRNA inh HTS RFP	FGF22 binding	E coli growth	MLL AF4-AF9 inh	Vif A3G	ALR inh
C=CCn1c(SCc2ccc(Cl)cc2)nc2c1c(=O)[nH]c(=O)n2C	-1.1	·	·	·	·	0.71	·	8%	·
Cc1cc(=O)cc(C)n1-c1ccc(Cl)c(Cl)c1	1.0	6	7	1.7	i	0.67	-1.0	·	0
C[C@]12C(=O)N(c3ccc(C(F)(F)F)cc3)C(=O)N1[C@@H]1c3ccccc3OC[C@@H]1[C@H]2c1ccccc1	-3.5	15	6	-1.1	i	0.8	-1.6	·	-20
CCN(CC)S(=O)(=O)c1ccc(O)c(C(=O)OCC(=O)NC23CC4CC(CC(C4)C2)C3)c1	0.0	-21*	-8.1*	4.4*	i	0.61	-2.5	4%	0
CCCCCCN1C[C@@H](n2cc(C3CC3)nn2)[C@H](O)C[C@@H]1c1ccc(OC)cc1	-3.3	-19	-33	-3.8	i	·	1.5	8%	·
C[C@H](CO)N1C[C@H](C)[C@@H](CN(C)CC2CC2)Oc2ccc(NC(=O)Nc3ccc(C(F)(F)F)cc3)cc2CC1=O	·	-2	0	1.9	i	·	4.1	·	·
Cc1cc(N2CCCC2)c(C)cc1C=O	1.2	·	·	·	·	0.66	·	6%	·
Nc1nn(-c2ccccc2)c(N)c1N=Nc1cccc(F)c1	1.5	-36*	-28*	-5.8*	i	0.61	15	-6%	10
Cn1c(=O)c2c(nc(CN3CCN(CCO)CC3)n2CCc2ccccc2)n(C)c1=O	-1.8	6	3	-4.0	i	0.67	-1.6	3%	-5
CCOc1ccc(CCNC(=O)Cn2c(=O)c3cccn3c3cccnc32)cc1	1.9	1	10	-0.4	i	0.63	-5.8	-6%	0
CCC(C(=O)OCC(=O)N1C(C)CCCC1C)c1ccccc1 (centres undefined)	-1.3	5	-5	1.7	i	0.68	-8.4	-5%	-12
Cc1ccc(S(=O)(=O)NCCC(=O)NCCc2ccccc2)cc1	-2.2	3	9	0.6	i	0.71	-0.4	-8%	·
CCOC(=O)C1CCN(S(=O)(=O)c2cc(C(=O)OC)n(C)c2)CC1	-1.9	13	13	2.0	i	0.69	2.2	·	-6
CC(=O)C1=C(O)C(=O)N(Cc2cccnc2)C1c1ccc(O)cc1 (centres undefined)	-2.0	16	15	1.6	·	0.68	-1.5	-10%	11
C[C@@H]1CN([C@H](C)CO)C(=O)c2cccc(NC(=O)c3ccc(-c4nccs4)cc3)c2O[C@@H]1CN(C)C(=O)Nc1ccc(C(F)(F)F)cc1	·	-6	-6	-3.0	i	·	5.6	·	·
COc1ccc(OC)c(NC(=O)COC(=O)CNC(=O)c2ccc(OC)c(OC)c2)c1	-2.0	·	·	·	·	0.71	·	-2%	-13
NCC[C@H]1CC[C@@H](NS(=O)(=O)c2ccc(Cl)cc2)[C@H](CO)O1	·	2	3	-0.4	i	·	6.3	·	·
Cc1cc(C(=O)N(C)Cc2c(F)cccc2Cl)c2ccccc2n1	1.7	-5	-2	3.1	i	0.68	-3.0	-3%	-11
CC(=O)c1c(C)[nH]c(C(=O)Nc2ccc(Cl)cc2)c1C	-3.8	1	2	1.7	i	0.65	1.4	·	·
C[C@@H]1CCCCO[C@@H](CN(C)C(=O)C2CCCCC2)[C@H](C)CN([C@H](C)CO)C(=O)c2cc(NS(=O)(=O)c3ccc(F)cc3)ccc2O1	·	-2	-7	4.1	i	·	3.8	·	·
COc1ccc(C#Cc2ccc3c(c2)O[C@@H](CN(C)C)[C@H](C)CN([C@@H](C)CO)S3(=O)=O)cc1	·	-10	-58	30	i	·	9.2	·	·
CCC(Oc1ccccc1)C(=O)Nc1nnc(C)s1 (centres undefined)	-0.2	·	·	·	·	0.69	·	-4%	-10
CSc1cccc(NC(=S)Nc2cc(C)ccc2C)c1	-1.1	-12	-1	-1.0	i	0.69	·	6%	0
CC1CCN(C(=O)Cn2c(=O)oc3ccccc32)CC1	-1.4	·	·	·	·	0.69	·	12%	2
CCCNC(=O)N1CC2(C1)[C@@H](c1ccccc1)[C@@H](CO)N2Cc1ccc(Cl)cc1	·	-9	-16	-2.3	i	·	0.9	·	·

In the list so far, these contain a furan ring, fused or not.
SMILES	HNF4A DNA FP	rRNA inh HTS	rRNA inh HTS OD600	rRNA inh HTS RFP	FGF22 binding	E coli growth	MLL AF4-AF9 inh	Vif A3G	ALR inh
CCCc1ccc2oc(C(=O)NCc3nnc(C)o3)c(C)c2c1	0.3	-31	-30	-6.1	i	0.69	-0.9	8%	-3
COc1ccc(NC(=S)N2CCN(C(=O)c3ccco3)CC2)c(OC)c1	-0.6	·	·	·	·	0.68	·	-1%	19

2 of the compounds above, with values under each structure.
Each structure is followed by: HNF4A DNA FP, rRNA inh HTS, rRNA inh HTS OD600, rRNA inh HTS RFP, FGF22 binding, E coli growth, MLL AF4-AF9 inh, Vif A3G, ALR inh
> COc1ccc(OC)c(NC(=O)COC(=O)CNC(=O)c2ccc(OC)c(OC)c2)c1
  -2.0, ·, ·, ·, ·, 0.71, ·, -2%, -13
> C[C@]12C(=O)N(c3ccc(C(F)(F)F)cc3)C(=O)N1[C@@H]1c3ccccc3OC[C@@H]1[C@H]2c1ccccc1
  -3.5, 15, 6, -1.1, i, 0.8, -1.6, ·, -20

Continuation.
SMILES	HNF4A DNA FP	rRNA inh HTS	rRNA inh HTS OD600	rRNA inh HTS RFP	FGF22 binding	E coli growth	MLL AF4-AF9 inh	Vif A3G	ALR inh
Cc1cccc2nc(CSC(=N)N)c(Br)n12	-4.2	-6	-6	-2.0	i	0.69	4.4	29%	-2
O=C(Nc1nc(-c2ccccn2)cs1)C1CC1	1.6	-38	-54	0.4	i	0.69	0.0	-2%	6
CCc1ccc(/C=N/NC(=O)C(=O)NCCCN2CCOCC2)cc1	2.4	6	13	0.0	i	·	-8.3	2%	-2
CCc1ccc(OCC(=O)NNC(=O)CNC(=O)c2ccc(Br)o2)cc1	-3.8	4	4	-0.2	i	0.71	2.5	-5%	0
CO[C@@H]1CN(C)C(=O)c2cc(NS(=O)(=O)c3ccc(C)cc3)ccc2OC[C@H](C)N(C(=O)NC(C)C)C[C@H]1C	·	2	-1	2.2	i	·	1.1	·	·
CCn1nc(NS(=O)(=O)c2ccccc2)c2cc3cccc(C)c3nc21	2.1	·	·	·	·	0.76	·	20%	-19
CCCNC(=O)N(C)C[C@H]1Oc2ncc(C#CC3CC3)cc2C(=O)N([C@@H](C)CO)C[C@H]1C	·	1	-1	1.9	i	·	-3.9	·	·
O=C(COC(=O)CNC(=O)c1ccc(Br)cc1)NCCC1=CCCCC1	4.2	-5	1	4.1	i	0.65	-1.3	-4%	-11
Cc1ccccc1-c1nnc(-c2ccccc2)o1	-1.3	·	·	·	·	0.68	·	-6%	-1
C[C@H](CO)N1C[C@H](C)[C@H](CN(C)C(=O)Nc2cccc3ccccc23)Oc2c(NC(=O)c3ccncc3)cccc2C1=O	·	-12	-10	-1.1	i	·	-1.3	·	·
CCOC(=O)C1=C(C)N=c2s/c(=C\c3cccc(OCC(=O)O)c3)c(=O)n2C1c1ccccc1 (centres undefined)	-0.4	5	1	3.8	i	·	0.4	·	7

Compound activity deposited in PubChem by several laboratories.

Some of the compounds tested (hit frequency here may not be typical).
